# PKD1 kinase inh: inhibitors of human PKD1 kinase, biochemical, fluorescence polarization; Serine/threonine-protein kinase D1 (Homo sapiens), Q15139; PKD1 kinase fluorescence polarization assay; inhibition, %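 (about 10 µM by stock and volumes)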; hit rate 0.056% among 200,000;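 active means inhibition of 50% or more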;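 further: controls were vehicle for no effect and a reference inhibitor for full effect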
# Target sequence (Q15139 whole entry, looked up): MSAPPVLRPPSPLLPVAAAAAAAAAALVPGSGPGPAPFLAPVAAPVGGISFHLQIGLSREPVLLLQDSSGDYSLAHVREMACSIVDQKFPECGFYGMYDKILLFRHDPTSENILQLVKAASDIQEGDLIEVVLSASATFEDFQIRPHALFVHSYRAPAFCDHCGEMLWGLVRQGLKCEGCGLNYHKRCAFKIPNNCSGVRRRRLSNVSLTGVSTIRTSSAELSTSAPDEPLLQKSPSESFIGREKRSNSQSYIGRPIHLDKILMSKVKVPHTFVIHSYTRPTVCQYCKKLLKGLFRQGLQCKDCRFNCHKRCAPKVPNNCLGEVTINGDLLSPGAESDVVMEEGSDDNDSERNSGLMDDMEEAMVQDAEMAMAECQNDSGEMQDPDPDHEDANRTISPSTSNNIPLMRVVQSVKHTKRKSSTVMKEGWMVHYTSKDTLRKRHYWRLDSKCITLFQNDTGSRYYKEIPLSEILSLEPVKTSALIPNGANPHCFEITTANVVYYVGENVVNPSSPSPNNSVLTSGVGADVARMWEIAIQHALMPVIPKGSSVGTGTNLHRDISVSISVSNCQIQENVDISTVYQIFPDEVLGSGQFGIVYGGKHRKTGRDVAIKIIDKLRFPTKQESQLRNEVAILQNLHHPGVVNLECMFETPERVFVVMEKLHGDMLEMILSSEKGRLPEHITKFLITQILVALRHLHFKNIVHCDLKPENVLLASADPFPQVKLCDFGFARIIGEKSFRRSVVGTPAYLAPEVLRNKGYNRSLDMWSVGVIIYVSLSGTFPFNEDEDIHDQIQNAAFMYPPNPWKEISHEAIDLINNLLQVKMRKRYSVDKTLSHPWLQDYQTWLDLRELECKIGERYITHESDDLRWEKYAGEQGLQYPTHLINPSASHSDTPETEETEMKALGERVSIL
# INS promoter inh: inhibitors of insulin promoter-driven GFP, primary screen, imaging, TRM-6 cells (human fetal islet line), eGFP reporter, cell count. inhibition, % at 2 µM. reporter expression induced with tamoxifen. hit rate 0.9% among 130,000;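 active means inhibition above the mean plus 3 SD, with well images judged a real hit on visual review, cut at about 60% in these data, passing the limit was not always enough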
# RGS16-Gao: modulators of RGS16 binding to Galphao, primary screen, biochemical, human proteins, multiplexed bead flow cytometry. Regulator of G-protein signaling 16 (Homo sapiens) + Guanine nucleotide-binding protein …. bead-based flow cytometry RGS16-Galphao binding, fluorescence; actives lie on both sides. binding response (% of control), % at 10 µM. hit rate 0.38% among 220,000;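 active means below 25% or above 175%, edge rows of some plates excepted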;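 further: Galphao activated by GDP with aluminum fluoride before binding; 100% = wells without compound and 0% = beads without RGS; some results beyond the cut were filed as inactive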
# HSV replic up: enhancers of HSV replication in host cells, fold increase, host cell viability | HSV replication augmentation in cells | maximum fold increase | hit rate 0.005% among 220,000 | AID 1956, 2009;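 active means peak rise of 1.5-fold or more in the series; tested in PC3 cells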;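 further: first round at 10 µM; read as green reporter fluorescence; hits show the peak of a series up to 25 µM; 1 = signal of infected wells without compound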
# GALR2 ag: GALR2 receptor agonists, primary screen, cell-based. Galanin receptor type 2 (Homo sapiens), O43603. activation, %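 (tested at 5 µM)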. hit rate 0.48% among 140,000. GALR2-expressing cells, agonist activation read-out;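 active means above mean plus 3 SD of all compounds, about 5% in these data, not always enough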;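 further: 0% = vehicle buffer wells and 100% = reference agonist at full effect; tested in CHO reporter cells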
# INS promoter inh cell count: also measured in INS promoter inh; calls as there; normalized cell count, %; measured here: cell count, toxicity; reference of the scale not given here;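 cells exposed to compound for 48 h; stained nuclei by imaging scaled within each plate; lower means fewer cells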
# HSV replic up primary fold: also measured in HSV replic up; calls as there; fold increase; compound at 10 µM; measured here: primary screen fold increase 10 uM; tested in PC3 cells;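 GFP signal in the first replicate; 1 = infected wells without compound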
# Starred values were filed as active, the others as inactive; i = inactive; nt = no result given.
SMILES,PKD1 kinase inh,INS promoter inh,INS promoter inh cell count,RGS16-Gao,HSV replic up,HSV replic up primary fold,GALR2 ag
O=C(COc1ccccc1-c1ccccc1)N/N=C/c1cccc2ccccc12,1,-150,12,109,i,0.43,0.4
Clc1ccc2nc(CSc3ccccc3)cn2c1,-8,nt,nt,169,i,1,nt
C1CCN(c2nc3nonc3nc2NCC2CCOCC2)CC1,-4,nt,nt,95,i,0.99,nt
CCn1c(SCC(=O)Nc2ccc3c(c2)oc2ccccc23)nnc1-c1ccc(N)cc1,-6,-10,95,51,i,0.87,1.2
COc1ccc2c(c1)cc1n2CCN=C1N,8,9,179,88,i,0.9,0.1
C[C@@H](C(=O)NCc1ccccn1)[C@@H]1C[C@@]1(C)[C@@H](NC(=O)OCc1ccccc1)c1ccccc1,2,45,113,108,i,0.78,-0.8
O=C(N/N=C/c1ccc[nH]1)c1cccnc1,-3,-26,111,102,i,0.85,-1.5
O=C(Nc1cccnc1)c1coc(=O)c2ccccc12,-10,nt,nt,100,i,0.99,-2.5
O=C(O)c1cccc(NC(=S)NC(=O)c2ccc(-c3ccc(Cl)cc3)o2)c1,-10,-29,72,105,i,1,nt
O=C(Nc1cc(S(=O)(=O)Nc2ccccc2Cl)ccc1O)c1cc2c(s1)CCCC2,nt,nt,nt,99,i,0.96,nt
Cc1nc2ccc(NC(=O)COc3ccccc3)cc2s1,-6,5,122,107,i,1.2,nt
CCOC(=O)c1cnc2c(C)c(C)ccc2c1Nc1ccc(S(=O)(=O)Nc2ncccn2)cc1,12,nt,nt,100,i,1.2,2.6
O=C(CN(c1cccc(Cl)c1)S(=O)(=O)c1ccc(Cl)cc1)N1CCc2ccccc2C1,-5,-67,73,108,i,1,-2.4
O=C(NCCc1c[nH]c2ccccc12)/C(=C\c1cccnc1)NC(=O)c1ccco1,-3,0,44,107,i,0.98,-1.1
Cc1cc(=O)[nH]c(SCC(=O)Nc2ccc(F)cc2)c1C#N,2,nt,nt,94,i,0.96,nt
CCN(CC)C(=S)SCC(=O)NC12CC3CC(CC(C3)C1)C2,5,36,159,103,i,0.98,-0.7
CC1CCN(C(=O)CSc2nc(N)c3c4c(sc3n2)CN(C)CC4)CC1,-15,-19,121,94,i,0.94,0.7
COc1cc(C=O)ccc1OCC(=O)NC(C)(C)C,-2,-18,95,102,i,1.1,nt
Clc1cccc(COn2c(-c3ccc(Cl)cc3Cl)nc3ncccc32)c1,0,-32,49,100,i,0.93,-0.6
CCOCCCNC(=O)C(NC(=O)c1ccc(NC(C)=O)cc1)c1ccccc1 (configuration not stated),-19,-61,65,68,i,0.96,-1.2
COc1ccc(OC)c(NC(=O)c2ccccc2NS(=O)(=O)c2cccc3cccnc23)c1,-6,-27,82,111,i,1.1,-0.3
CCCCc1nc(SCC(=O)Nc2cc(C)on2)n[nH]1,-11,-14,118,104,i,1,-0.2
Cc1sc(/N=C/c2c(O)ccc3ccccc23)c(C#N)c1C,7,nt,nt,95,nt,nt,-2.2
CCOc1ccc(CC(C(=O)NN)C(=O)NN)cc1CN(C)C,1,43,126,97,i,0.67,-1.7
O=C(CN1CCc2ccccc21)NCc1ccccc1Cl,-5,nt,nt,100,i,1.1,-0.8

# 20 consecutive entries already listed, for reference:
SMILES,PKD1 kinase inh,INS promoter inh,INS promoter inh cell count,RGS16-Gao,HSV replic up,HSV replic up primary fold,GALR2 ag
C[C@@H](C(=O)NCc1ccccn1)[C@@H]1C[C@@]1(C)[C@@H](NC(=O)OCc1ccccc1)c1ccccc1,2,45,113,108,i,0.78,-0.8
O=C(N/N=C/c1ccc[nH]1)c1cccnc1,-3,-26,111,102,i,0.85,-1.5
O=C(Nc1cccnc1)c1coc(=O)c2ccccc12,-10,nt,nt,100,i,0.99,-2.5
O=C(O)c1cccc(NC(=S)NC(=O)c2ccc(-c3ccc(Cl)cc3)o2)c1,-10,-29,72,105,i,1,nt
O=C(Nc1cc(S(=O)(=O)Nc2ccccc2Cl)ccc1O)c1cc2c(s1)CCCC2,nt,nt,nt,99,i,0.96,nt
Cc1nc2ccc(NC(=O)COc3ccccc3)cc2s1,-6,5,122,107,i,1.2,nt
CCOC(=O)c1cnc2c(C)c(C)ccc2c1Nc1ccc(S(=O)(=O)Nc2ncccn2)cc1,12,nt,nt,100,i,1.2,2.6
O=C(CN(c1cccc(Cl)c1)S(=O)(=O)c1ccc(Cl)cc1)N1CCc2ccccc2C1,-5,-67,73,108,i,1,-2.4
O=C(NCCc1c[nH]c2ccccc12)/C(=C\c1cccnc1)NC(=O)c1ccco1,-3,0,44,107,i,0.98,-1.1
Cc1cc(=O)[nH]c(SCC(=O)Nc2ccc(F)cc2)c1C#N,2,nt,nt,94,i,0.96,nt
CCN(CC)C(=S)SCC(=O)NC12CC3CC(CC(C3)C1)C2,5,36,159,103,i,0.98,-0.7
CC1CCN(C(=O)CSc2nc(N)c3c4c(sc3n2)CN(C)CC4)CC1,-15,-19,121,94,i,0.94,0.7
COc1cc(C=O)ccc1OCC(=O)NC(C)(C)C,-2,-18,95,102,i,1.1,nt
Clc1cccc(COn2c(-c3ccc(Cl)cc3Cl)nc3ncccc32)c1,0,-32,49,100,i,0.93,-0.6
CCOCCCNC(=O)C(NC(=O)c1ccc(NC(C)=O)cc1)c1ccccc1 (configuration not stated),-19,-61,65,68,i,0.96,-1.2
COc1ccc(OC)c(NC(=O)c2ccccc2NS(=O)(=O)c2cccc3cccnc23)c1,-6,-27,82,111,i,1.1,-0.3
CCCCc1nc(SCC(=O)Nc2cc(C)on2)n[nH]1,-11,-14,118,104,i,1,-0.2
Cc1sc(/N=C/c2c(O)ccc3ccccc23)c(C#N)c1C,7,nt,nt,95,nt,nt,-2.2
CCOc1ccc(CC(C(=O)NN)C(=O)NN)cc1CN(C)C,1,43,126,97,i,0.67,-1.7
O=C(CN1CCc2ccccc21)NCc1ccccc1Cl,-5,nt,nt,100,i,1.1,-0.8

# Remaining list, next part.
SMILES,PKD1 kinase inh,INS promoter inh,INS promoter inh cell count,RGS16-Gao,HSV replic up,HSV replic up primary fold,GALR2 ag
O=C(c1ccccc1)c1ccc2nc(N3CCCCC3)c3nncn3c2c1,-10,-320,70,104,i,0.74,-0.5
O=C(CCc1ccccc1)Nc1cc(C(=O)O)cc(C(=O)O)c1,1,nt,nt,102,i,0.9,nt
COc1ccc2nc(Nc3ccccc3)sc2c1,-3,nt,nt,100,i,1.1,nt
Cc1ncc([N+](=O)[O-])n1CCOC(=O)c1cc(Cl)cc(Cl)c1N,-4,-68,51,105,i,0.96,-0.6
O=C(NCCCN1CCOCC1)C1CC(=O)N(C2CCCCC2)C1 (configuration not stated),-2,13,99,135,i,1,-1.1
CC1CCCC(C)N1CCNC(=O)C1CCN(S(=O)(=O)N2CCCCC2)CC1 (configuration not stated),-6,36,113,107,i,1.2,-0.5
CCCn1c(=O)c(C(=O)N/N=C/c2ccc(F)cc2)c(O)c2ccccc21,nt,nt,nt,101,i,0.95,nt
CC(C)[C@@H](CO)NC(=O)c1ccc2c3n(nc2c1)-c1ccc(Cl)cc1CO3,nt,nt,nt,96,i,0.98,nt
CC(C)c1ccc(Nc2ncccc2C(=O)O)cc1,8,25,89,94,i,1,nt
CCOC(=O)c1c(C)c(C(=O)Nc2ccc3c(c2)OCCO3)c(C)n1CC,0,nt,nt,93,i,0.6,-4.7
O=C(NCc1n[nH]c(=S)n1Cc1ccccc1)c1ccccc1,0,nt,nt,102,i,1.1,nt
CCOC(=O)c1nn(-c2ccc(Cl)cc2)c2nc(CC)c(C#N)c(=O)n12,4,17,56,91,i,0.98,-1.3
Cc1cc(C)nc(NS(=O)(=O)c2ccc(N/C=C3\CCCC3=O)cc2)n1,-2,-11,97,73,i,1.1,-2.4
CCCc1[nH]nc2c1C(c1ccccc1OCC)C(C#N)=C(N)O2 (configuration not stated),-5,nt,nt,111,i,0.82,0.5
Cc1ccccc1NC(=S)NCC(c1cccnc1)N(C)C (configuration not stated),-4,nt,nt,97,i,0.99,-0.6
CCc1nc(SCC(=O)Nc2ccnc3ccccc23)n[nH]1,-10,-131,86,99,i,1.3,-2.9
CC(C)(C)c1nc(C(C)(C)C)c(Br)c(=O)[nH]1,1,6,82,101,i,1.1,0.8
Cc1cc(C)c(C#N)c(SCS(=O)Cc2ccc(Cl)cc2)n1 (configuration not stated),5,nt,nt,99,i,1,-0.3
O=C(OCC(=O)N1CCCC1)c1cncc(Br)c1,-4,100*,9.2*,96,nt,nt,-3.4
CCOc1ccc(/C=C2\SC(=S)N(NC(=O)c3ccncc3)C2=O)cc1OC,nt,nt,nt,101,i,1.1,nt
COc1ccc(C(=O)Nc2ccc3oc(-c4cccnc4)nc3c2)cc1OC,7,nt,nt,108,i,0.86,nt
O=S(=O)(CCOc1ccccc1)N1CCOCC1,-9,21,94,96,i,1,-2.3
Cc1ccccc1N1CCN(C(=O)c2ccccc2NC(=O)c2ccccc2C(=O)O)CC1,2,nt,nt,95,i,1,nt
CC(NC(=O)c1ccco1)C(=O)N1CCc2ccccc2C1 (configuration not stated),-2,38,97,63,i,1.1,-2.3
COc1ccc(S(=O)(=O)N2CCN(c3ccc4nnc(-c5ccccc5)n4n3)CC2)cc1,-13,nt,nt,100,i,0.98,1.1

# (next part)
SMILES,PKD1 kinase inh,INS promoter inh,INS promoter inh cell count,RGS16-Gao,HSV replic up,HSV replic up primary fold,GALR2 ag
CC(NC(=S)Nc1cccc(C(F)(F)F)c1)C(C)(C)C (configuration not stated),-6,-24,104,100,i,1.2,nt
Cc1nc(N2CCN(c3ncccn3)CC2)c2oc3ccccc3c2n1,-7,-38,154,nt,nt,nt,2.9
CN(c1ccc(C(=O)Nc2ccc(Cl)cn2)cc1)S(=O)(=O)c1ccccc1,-5,24,105,103,i,0.98,nt
O=C(NC(=S)Nc1ccc(NC(=O)c2cccs2)cc1)c1cc2ccccc2o1,-4,19,112,104,i,0.69,11*
CCOc1ccc(-n2c(-c3ccccc3)c[n+]3c2CCCCC3)cc1,-4,nt,nt,93,i,0.92,0.0
Cc1cc(C)n2nc(SCC(=O)N(C(C)C)C(C)C)nc2n1,2,12,112,109,i,0.78,-0.7
O=C(CSc1ccc2c(c1)OCCO2)NC(=O)NC1CCCC1,-10,38,87,102,i,0.87,0.1
CC(C)Cn1c(O)c2ccc(C(=O)N=NC(=O)c3cccnc3)cc2c1O,0,nt,nt,102,i,0.88,0.4
NC(=S)Nc1cc(Cl)ccc1Cl,nt,nt,nt,107,i,0.96,nt
O=C(/C=C/c1cccc([N+](=O)[O-])c1)NCc1ccc2c(c1)OCO2,-5,-25,112,102,i,1.1,0.2
FC(F)(Cl)c1nnc2ccc(Sc3ccccn3)nn12,-3,57,43,103,i,0.87,nt
CC1CCN(c2nnc(-c3ccccc3)c3ccccc23)CC1,1,nt,nt,102,i,0.88,nt
O=C(CN1CCN(S(=O)(=O)c2ccc(F)cc2)CC1)Nc1cc(C(F)(F)F)ccc1Cl,-2,-29,111,52,i,0.79,-1.7
COCCNC(=O)c1c(NC(=O)c2nc(SC)ncc2Cl)sc2c1CCCC2,-4,nt,nt,99,i,1.1,-1.4

# Full records, looked up by structure. Screens in order: PKD1 kinase inh	INS promoter inh	INS promoter inh cell count	RGS16-Gao	HSV replic up	HSV replic up primary fold	GALR2 ag
# Cc1ccccc1NC(=S)NCC(c1cccnc1)N(C)C (configuration not stated) is entered as -4	nt	nt	97	i	0.99	-0.6
# C[C@@H](C(=O)NCc1ccccn1)[C@@H]1C[C@@]1(C)[C@@H](NC(=O)OCc1ccccc1)c1ccccc1 is entered as 2	45	113	108	i	0.78	-0.8

# Bioassay records (PubChem BioAssay)
